Sfp PPTase inh: Sfp phosphopantetheinyl transferase inhibition. Q9F4F7. Biochemical Sfp PPTase activity, qHTS. 3.5% of 310,000 active. Potency, µM, for the others: max response, negative = inhibition, usual class: inhibitors. AID 1490; active = well fitted inhibition curve with a large enough effect; inconclusive = small, poorly fitted or top-dose-only effect, or another doubt; inactive = no such curve, though single readings can be large or run the other way;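 also: the enzyme is Sfp with the accession as filed and its product quenches rhodamine fluorescence; 0% = enzyme reaction without inhibitor and -100% = no enzyme wells; top concentration of the series not given in the record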
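Fluorescence-quenching assay with 15 nM Sfp, 5 uM rhodamine-CoA and 12.5 uM BHQ-2-labelled ybbR peptide in pH 7.6 Hepes/MgCl2 buffer. Enzyme was pre-incubated with compound for 15 min at room temperature. Rate was taken from the 30-min fluorescence change (525/598 nm).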
* hit, by the source's call; ? = inconclusive; & = joins results of further samples; [ ] = remark or other dose. Potency is read from the fitted curve at half-maximal effect. A portion of the library, so the mix of outcomes need not match the whole.

molecule,Sfp PPTase inh
COC(=O)c1ccc(C(NC(=O)OCc2ccccc2)/C(=C/[C@@H](C)C(=O)NCc2cccnc2)c2cccnc2)cc1 (stereo partly specified),35%[activator]
CCCCCCCC/C=C\CCCCCCCC(N)=O,0%&10%&4%&22%
CCC(=O)OCC(=O)C1(OC(=O)CC)C(C)CC2C3C(Cl)CC4=CC(=O)C=C[C@@]4(C)C3C(O)C[C@@]21C (stereo partly specified),2%
CC1(O)CCC(C(C)(C)O)CC1 (stereo unspecified),13%&12%&18%
CN1C(=O)CC[C@@H]1c1cccnc1,-2%
CNC1CCc2cc(OC)c(OC)c(OC)c2-c2ccc(OC)c(=O)cc21 (stereo unspecified),15%
COC(=O)[C@H](COC(C)(C)C)NC(=O)O[C@H]1C(=O)c2ccc(OC)cc2O[C@@H]1c1ccc2c(c1)OCO2,-7%
CC[C@H](C)[C@H](N)C1=N[C@H](C(=O)N[C@@H](CC(C)C)C(=O)N[C@@H](CCC(=O)O)C(=O)N[C@@H](C(=O)N[C@H]2CCCCNC(=O)[C@@H](CC(N)=O)NC(=O)[C@@H](CC(=O)O)NC(=O)[C@@H](Cc3cnc[nH]3)NC(=O)[C@@H](Cc3ccccc3)NC(=O)[C@@H]([C@@H](C)CC)NC(=O)[C@@H](CCCN)NC2=O)[C@@H](C)CC)CS1,-11%
O=C(CO)[C@@H](O)C(O)[C@@H](O)CO (stereo partly specified),0%
COC(=O)CC1C(C)(C)C(=O)C2CC3=C4CC(=O)OC(c5ccoc5)[C@]4(C)CCC3[C@@]1(C)C2=O (stereo partly specified),15%
C=CC[C@@](C(C)=O)(C(=O)OC)C(NC(=O)OC)c1ccccc1 (stereo partly specified),-12%
CCCN(CCC)C[C@@H]1CCCCN1CCNC(=O)N1c2ccccc2C(=O)Nc2cccnc21,-4%
COc1cc(-c2ccc(-[n+]3nc(-c4ccccc4)nn3-c3ccc([N+](=O)[O-])cc3)c(OC)c2)ccc1-[n+]1nc(-c2ccccc2)nn1-c1ccc([N+](=O)[O-])cc1,8%
O=C(NCc1ccccn1)C1(C(F)(F)F)C/C(=C\Cc2ccccc2)CCCO1 (stereo unspecified),56µM*
CC#CCN1c2ccccc2[C@]23C[C@@H](C(=O)OC)N(S(=O)(=O)c4c(C)noc4C)C2=NC(C(=O)OC)=C(C(=O)OC)[C@H]13,15%
C=C1C(=O)OC2C[C@@]3(C)CCCC(=C)[C@@H]3CC12 (stereo partly specified),-2%
C[C@H](NC(=O)N1CCc2nc(COc3ccccc3)c3c(c2C1)CO[C@@H](C)C3)c1ccccc1,-10%
CC(=O)N1CCN(C)CC1,14%&9%
NCC1O[C@@H](OC2C(N)CC(N)C(O)C2O[C@@H]2OC(CO)C(O)C2O)C(N)C(O)C1O (stereo partly specified),6%
N[C@@H](C(=O)O)[C@H](CC(=O)O)c1ccc(Cl)cc1,17%
CCc1cc2c(c(CC)n1)CCC(=O)N2Cc1ccc(-c2ccccc2-c2nn[nH]n2)cc1,-2%
CCCC[C@@H]1CCCO[C@@](C(=O)NCC2CC2)(C(F)(F)F)C1,9%
CC(O)CCCCn1c(=O)c2c(ncn2C)n(C)c1=O (stereo unspecified),20%
O=S(=O)(CCC(F)=C(F)F)c1nnnn1C1CCCCC1,4%
Cc1c(O)cc(O)c2c(=O)c(-c3ccc(O)cc3)coc12,2%
COC(=O)c1ccc(C(NC(=O)OCc2ccccc2)/C(=C/[C@@H](C)C(=O)NCc2ccccc2)c2cccnc2)cc1 (stereo partly specified),15%
O=C([O-])[C@@H]1[O][Sb+]([O][Sb+]2[O][C@H]([C@H](O)CO)[C@H](O)[C@H](C(=O)[O-])[O]2)[O][C@H]([C@H](O)CO)[C@@H]1O,-2%
CCCCCC=CCC=CCCCCCCCC(=O)OCC,27%
COC(=O)C/C=C\[C@@H](C)[C@@H](/C=N\OC[C@@H](C)[C@H](OCc1ccccc1)C(C)C)NS(=O)(=O)c1ccc(C)cc1,9%
CCCCCCCCCCCCCCCCCC(=O)OCC(C)O (stereo unspecified),-11%
C=C1C[C@H](OC(=O)C(C)(O)CCl)C2C(=C)C(=O)O[C@@H]2C2C1C[C@H](O)[C@]2(O)CCl (stereo partly specified),6%
O=C(Cc1ccccc1)Nc1nc2ccc(Cl)cc2c2nc(-c3ccco3)nn12,-18%&-9%
O=S(=O)(O)c1cc(N=C=S)ccc1/C=C/c1ccc(N=C=S)cc1S(=O)(=O)O,-13%
CC(=O)Nc1ccc(OCCOCCOc2ccc(NC(C)=O)cc2)cc1,27%
C/C(CCN1CCCc2nc(C)c(C)cc21)=N\OC[C@@H](O)COCc1ccco1,13%
Cc1cc2oc(=O)cc(-c3ccccc3)c2c(C)c1/C=C/c1ccc(F)cc1,-5%
CC(C)CCOc1ccc(N)cc1,-20%
CC1(C)C2CC[C@]1(C)[C@@H](O)C2,13%
O=C(O)c1ccc2c(c1)C(=O)N([C@H](Cc1ccc(-c3ccccc3)cc1)C(=O)O)C2=O,16%
C=C/C1=C/Cc2ccccc2[C@H](C[N+](=O)[O-])C(C(C)=O)(C(=O)OC)C1 (stereo partly specified),0%&7%
CC=C1COC(C(=O)NCCOCCO)(C(F)(F)F)C=C1C=C(C)C (stereo unspecified),-10%
CCN(CC)CCCC(C)n1c(-c2ccccc2)nc2c(NCCOC)nc(C)nc21 (stereo unspecified),25%
C[C@@H]1CNCCN1S(=O)(=O)c1cccc2cnccc12,2%
CCC1=C2CC[C@H]3C(=O)N(c4ccccc4)C(=O)[C@H]3[C@H]2[C@@]2(C)C(=O)N(Cc3ccccc3)C(=O)N2C1=O,-4%
COC(=O)NC(c1cccc(F)c1)C(C(C)=O)C(=O)OC (stereo unspecified),13%
CCN(CC)C(=O)c1cccnc1,27%
CC(C)CO/N=C1/C[C@@H](O)[C@@H](O)[C@@H]2[C@H]3C(=O)N(c4ccc(F)cc4F)C(=O)[C@@H]3CC[C@H]12,-2%
Cc1cnc(C(=O)O)cn1,-30%
Cc1ccc(CC(Cc2nc3ccccc3[nH]2)c2nc3ccccc3[nH]2)cc1 (stereo unspecified),20%
COc1cc(-c2coc3cc(OCc4ccccc4)c(OC)c(O)c3c2=O)cc(O)c1OC,-34%
OC[C@@H]1O[C@H](OC2[C@@H](O)[C@@H](O)C(O)O[C@@H]2CO)[C@H](O)[C@@H](O)[C@@H]1OC1O[C@H](CO)[C@@H](O)[C@H](O)[C@@H]1O (stereo partly specified),25%
CC[C@@H]1Cn2c(c3nc(-c4cc(Cl)cc(Cl)c4Cl)nc-3n(C)c2=O)N1,15%
C=CCC(O)c1ccccc1 (stereo unspecified),16%
COC(=O)c1ccc(C(NC(=O)OCc2ccccc2)/C(C)=C/[C@@H](C)C(=O)NCc2cc(F)cc(F)c2)cc1 (stereo partly specified),19%
O=S(=O)(c1ccccc1Br)N(Cc1ccccc1)Cc1ccco1,-1%
C=CC1=C2C=C(C3CC3)N(C(CO)CO)C=C2C(=O)C(C)(OC(=O)c2ccco2)C1=O (stereo unspecified),11%

Sorted by value in Sfp PPTase inh (largest number first): some entries from above
| Structure | Sfp PPTase inh |
| --- | --- |
| C=CCC(O)c1ccccc1 (stereo unspecified) | 16% |
| C=CC1=C2C=C(C3CC3)N(C(CO)CO)C=C2C(=O)C(C)(OC(=O)c2ccco2)C1=O (stereo unspecified) | 11% |
| O=S(=O)(c1ccccc1Br)N(Cc1ccccc1)Cc1ccco1 | -1% |
| COc1cc(-c2coc3cc(OCc4ccccc4)c(OC)c(O)c3c2=O)cc(O)c1OC | -34% |

Further structures
molecule,Sfp PPTase inh
COC(=O)[C@@]1(Cc2ccccc2)[C@H]2c3cc(C(=O)N(C)C)n(C[C@H](O)CO)c3C[C@H]2CN1C(=O)c1ccccc1,10%
CCOC(=O)N/N=C1/C[C@@H](O)[C@@H](O)[C@@H]2[C@@H]3C(=O)N(C[C@@H]4CCCO4)C(=O)[C@H]3CC[C@@H]12,18%
CC(=O)N[C@@H](CC(=O)O)C(=O)N[C@@H](CCC(=O)O)C(=O)O,?
O=C(NNCS(=O)(=O)O)c1ccncc1,14%
CC(=O)O[C@@H]1CC[C@@]2(C)[C@H](C1)[C@H](OC(C)=O)C[C@@H]1[C@@H]2C[C@H]2[C@@H]3CN4C[C@H](C)CC[C@H]4[C@H](C)[C@H]3CC[C@@]12O,0%
C/C(CCC(=O)OC[C@@H]1O[C@H](C#Cc2ccccc2)C=C[C@@H]1Oc1ccc(C)cc1)=N/O[C@@H](C)c1cn([C@H](CO)Cc2ccccc2)nn1,13%&12%
CCC/C=C1\CCCOC(C(=O)NCc2ccc(C)o2)(C(F)(F)F)C1 (stereo unspecified),50µM*
C=C(C)[C@]12C[C@@H](C)[C@@]34OC(Cc5ccccc5)(O[C@@H]1[C@@H]3C=C(COC(=O)Cc1cc(OC)c(O)cc1I)C[C@]1(O)C(=O)C(C)=C[C@@H]41)O2,16%

Laid out differently: entries from further up
CCOC(=O)N/N=C1/C[C@@H](O)[C@@H](O)[C@@H]2[C@@H]3C(=O)N(C[C@@H]4CCCO4)C(=O)[C@H]3CC[C@@H]12
  Sfp PPTase inh: 18%
CC(=O)N[C@@H](CC(=O)O)C(=O)N[C@@H](CCC(=O)O)C(=O)O
  Sfp PPTase inh: ?
O=C(NNCS(=O)(=O)O)c1ccncc1
  Sfp PPTase inh: 14%
CC(=O)O[C@@H]1CC[C@@]2(C)[C@H](C1)[C@H](OC(C)=O)C[C@@H]1[C@@H]2C[C@H]2[C@@H]3CN4C[C@H](C)CC[C@H]4[C@H](C)[C@H]3CC[C@@]12O
  Sfp PPTase inh: 0%

(more compounds)
SMILES | Sfp PPTase inh
COC(=O)N1C(C)=Cc2ccccc2C1CC(C)=O (stereo unspecified) | 6%&-4%&-10%
COC(=O)C/C=C\[C@@H](C)[C@@H](/C=N\OCC[C@H]1C=C[C@H](OC(C)=O)[C@@H](COC(C)=O)O1)NS(=O)(=O)c1ccc(C)cc1 | 4%
COC(=O)C(Cc1ccccc1)NS(=O)(=O)c1cc(Br)ccc1Br (stereo unspecified) | 1%
CCC[C@@H]1C[C@@]1(CCC)C(NC(=O)c1ccccc1)c1cccc(Cl)c1 (stereo partly specified) | 29%
N#CCCS(=O)(=O)c1ccccc1 | -5%
CC[C@H](C)[C@H](NC(=O)[C@@H](N)CCC(=O)O)C(=O)N[C@@H](CC(C)C)C(=O)N[C@@H](CC(=O)O)C(=O)N[C@H](C(=O)N1CCC[C@H]1C(=O)N[C@@H](CO)C(=O)N[C@H](C(=O)O)[C@@H](C)O)C(C)C | 6%
O=C(O)[C@@H]1CSCN1 | 56µM*
CCCCC(CC)CCC(CC(C)C)OS(=O)(=O)O (stereo unspecified) | 13%
CC[C@H](C)[C@H](NC(=O)[C@H](Cc1cnc[nH]1)NC(=O)[C@@H](N)CCC(=O)O)C(=O)N1CCC[C@H]1C(=O)N[C@@H](C)C(=O)O | 3%
N=C(N)N1Cc2ccccc2C(O)C1 (stereo unspecified) | -4%
CN1[C@H](CC(=O)c2ccccc2)CCC[C@H]1C[C@H](O)c1ccccc1 | 2%
O=C(CN1CCNCC1)NC1CCCCC1 | 10%
COC(=O)[C@@]1(Cc2ccc(OC)cc2)[C@H]2c3cc(C(=O)N4CCCC4)n(CCc4ccc(O)c(O)c4)c3C[C@H]2CN1C(=O)c1ccccc1 | -18%
CCCCCCCCCCCCCCCCOCCOCCOCCOCCOCCOCCOCCOCCOCCOCCOCCOCCOCCOCCOCCOCCOCCOCCOCCOCCO | 50µM*
O=S(=O)(Nc1cccc2cccnc12)c1ccccc1O | 12%
C[C@@]12C=CC(=O)C=C1CC[C@H]1[C@H]3CC[C@](O)(C(=O)CO)[C@]3(C)CC(=O)[C@@H]12 | 30%
CC(C)(C)OC(=O)NCCCCC1=CC2=CC(=O)C(C)(OC(=O)C3CCCC3)C(=O)C2=CO1 (stereo unspecified) | -10%
COc1ccc(/C=C/C(=O)c2cccs2)c(OC)c1 | ?
Cn1cc(C(F)(F)F)nc1-c1ccc(OC[C@@H](O)CNCCOc2ccc(O)c(C(N)=O)c2)cc1 | 17%
CCOC(=O)CNC(=O)O[C@@H]1C(=O)c2cc(OC)ccc2O[C@H]1c1ccc(OC)c(Br)c1 | 22%
CC1(OC(=O)c2cnc3ccccc3n2)C(=O)C=C2C=C3CCCN3C=C2C1=O (stereo unspecified) | -6%
COc1cccc([C@@H]2Oc3ccc(Br)cc3C(=O)[C@H]2OC(=O)Nc2ccc(C)c(Br)c2)c1 | 6%
N[C@@H](Cc1cc(CP(=O)(O)O)cc(-c2ccccc2Cl)c1)C(=O)O | 8.9µM*
COCOc1c2c(c(OCOC)c3c(OCOC)cccc13)/C(=N/NS(C)(=O)=O)C1=C2CCCC1 | -1%
CC1(C)OCC([C@H](O)C2=CCCCC2=O)CO1 | 10%&-9%
CCCCCCCCCCCCCCCCOC[C@H](COP(=O)([O-])OCC[N+](C)(C)C)OC(=O)NC | -5%&-25%
C[C@@]12C=Cc3occc3[C@H]1CC[C@@]13C[C@@H](CC[C@H]12)[C@@](O)(CO)C3 | -17%
CCCCC[C@H](O)/C=C/[C@@H]1[C@@H](C/C=C\CCCC(=O)O)[C@@H](O)C[C@@H]1O | 23%&0%
CCN1CCC[C@@H](OC(=O)C(c2ccccc2)c2ccccc2)C1 | 27%
COc1ccc(-c2coc3ccc(OC4OC(COC(C)=O)C(OC(C)=O)C(OC(C)=O)C4OC(C)=O)c(OC(C)=O)c3c2=O)cc1 (stereo unspecified) | 5%
C[C@@H](C(=O)Nc1ccc2ccccc2c1)[C@H]1C[C@]1(C)[C@H](NC(=O)c1ccccc1)c1ccccc1 | 14%

Assay outcomes: PubChem, National Center for Advancing Translational Sciences (NCATS)
